# Rango release inh – inhibition of RanGTP-driven Rango-importin beta dissociation; Biochemical FRET Rango-importin beta, RanGTP-induced dissociation; Potency, µM (highest dose often 46.1 µM), for inactives: at the highest dose activity change, negative = inhibition; AID 540253; 340,000 tested, 0.071% active; active means falling FRET ratio curve, often poorly fitted, with flat reads before Ran was added; inconclusive means other falling curves, or compound fluorescence or quenching; inactive means flat or rising ratio curve;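 note: potency is the fitted concentration of half-maximal effect; % of control where 0% means no effect; nearly all actives have a fitted effect of over 45% in size; -100% = wells without RanGTP and RCC1; the record marks most hits as doubtful in a second field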
#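 Rango (0.1 uM)–importin beta (0.25 uM) complex; RanGTP-RCC1 trigger; 45 min RT; CFP/YFP FRET read.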
# Rango-impB inh – prevents formation of the Rango-importin beta complex; Q14974; Rango CFP/YFP FRET sensor + importin beta, 45 min; Potency, µM (top dose mostly 92.2 µM), inactives show at the highest dose inhibition of complex formation; 340,000 tested, 0.031% active; AID 540263; active = rising FRET ratio curve, often small or poorly fitted; inconclusive = mostly compound fluorescence or quenching in the first reads; inactive = flat curves in all reads;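 note: potency is the fitted concentration of half-maximal effect; 0% = DMSO wells and 100% = buffer wells lacking importin beta; nearly all actives have a fitted effect of over 15% in size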
# Target sequence (Q14974 whole entry, looked up): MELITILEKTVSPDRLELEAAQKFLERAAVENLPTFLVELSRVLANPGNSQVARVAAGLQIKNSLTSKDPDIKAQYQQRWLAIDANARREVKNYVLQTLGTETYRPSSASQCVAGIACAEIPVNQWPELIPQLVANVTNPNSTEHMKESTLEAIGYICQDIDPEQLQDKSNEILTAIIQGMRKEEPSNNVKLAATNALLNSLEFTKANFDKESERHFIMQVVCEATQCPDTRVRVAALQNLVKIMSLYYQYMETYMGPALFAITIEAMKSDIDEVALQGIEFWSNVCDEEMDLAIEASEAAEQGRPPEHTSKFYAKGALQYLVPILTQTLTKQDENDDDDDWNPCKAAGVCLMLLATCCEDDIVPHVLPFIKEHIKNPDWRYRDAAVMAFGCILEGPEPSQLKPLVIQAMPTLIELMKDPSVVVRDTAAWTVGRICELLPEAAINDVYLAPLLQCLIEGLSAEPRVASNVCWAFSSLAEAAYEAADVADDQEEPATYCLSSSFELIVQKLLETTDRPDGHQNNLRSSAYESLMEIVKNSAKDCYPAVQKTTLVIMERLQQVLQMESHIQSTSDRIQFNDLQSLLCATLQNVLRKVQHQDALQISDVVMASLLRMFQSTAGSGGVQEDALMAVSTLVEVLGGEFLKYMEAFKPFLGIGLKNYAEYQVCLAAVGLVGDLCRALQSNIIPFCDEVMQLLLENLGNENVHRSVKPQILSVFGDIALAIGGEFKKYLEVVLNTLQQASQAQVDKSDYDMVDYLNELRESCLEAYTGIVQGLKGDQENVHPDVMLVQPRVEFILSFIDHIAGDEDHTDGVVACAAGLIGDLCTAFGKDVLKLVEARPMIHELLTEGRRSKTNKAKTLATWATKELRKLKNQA
#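 Inhibition scored from the CFP 486 nm/YFP 530 nm FRET ratio 45 min after adding 0.125 microM importin beta to 50 nM Rango biosensor preincubated 5 min with compound (room temperature, PBS with DTT, Tween-20, BSA). No-importin wells as positive control.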
# GLA inh pH 4.5 – inhibitors of human alpha-galactosidase A at pH 4.5; P06280; purified enzyme, 4-MU-alpha-Gal fluorescence, pH 4.5; activity change, negative = inhibition, % at 105 µM; 230,000 tested, under 10 active; inconclusive = small, poorly fitted or top-dose-only inhibition, or a rising curve; inactive = flat fitted curve, though single readings scatter; no compound was filed as active;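 note: 0% = full activity with enzyme and -100% = basal without enzyme; dose as in the result columns while the protocol names 77 µM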
# miR-21 reporter – raises the signal of a miR-21 reporter | HeLa miR-21 FLuc reporter, luciferase, 48 h | Potency, µM (titrated, usually from 38.3 µM), inactives show top-dose reporter change, positive = more light | 340,000 tested, under 10 active | AID 2288; active = well fitted rising curve with a large enough effect; inconclusive = small, poorly fitted or top-dose-only effect; inactive = no such curve, though single readings can be large or run the other way;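 note: % of control where 0% means no effect; miR-21 action dims this reporter so a rising signal means less miR-21 action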
#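 Using DMEM plus 10% FBS, HeLa miR-21-FLuc cells are incubated with test compounds (final up to about 40uM) for 48 hours; firefly luciferase signal is then imaged following reagent-mediated lysis.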
# Numbers without * were called inactive; ? = inconclusive; · = not tested or not shown; & = joins results of further samples. Only part of the results is shown; the hit share may differ from the screen's.
SMILES,Rango release inh,Rango-impB inh,GLA inh pH 4.5,miR-21 reporter
Cc1cccc(NC(=O)c2cc3ccccc3o2)c1,2.9%,3.4%,·,-44.2%
COc1cc(OC)c(S(=O)(=O)NC(C)C)cc1S(=O)(=O)NC(C)C,1.1%,-0.1%,-1.8,-0.3%
CCOC(=O)c1ccccc1NC(=O)CSc1nc(N)cc(N)n1,18.7%,-4.1%,1.1,-21.6%
O=C1CCCc2[nH]c(-c3ccccc3)nc21,1.1%,0.6%,-3.9,-24.7%
Cc1ccc(OCC(=O)Nc2cc(S(=O)(=O)N3CCOCC3)ccc2Cl)c([N+](=O)[O-])n1,15.4%,0.0%,-4.8,-1.7%
COc1cccc(NC(=O)C(=O)N/N=C/c2ccc3c(c2)OCO3)c1,2.3%,0.3%,·,-23.6%
O=C(O)c1cc(-c2cccs2)nc2ccc(F)cc12,-15.5%,1.1%,·,-4.8%
COc1ccc(CN2CCNC(=O)C2CC(=O)O)cc1OC (stereo not given),2.1%,-2.2%,-3.2,-1.5%
COc1ccc(-c2[nH]ncc2N=Nc2cc(C)cc(C)c2)cc1,3.2%,6.4%,-17.8,17.9%
CC(C)C(c1nnnn1C(C)(C)C)N1CCOCC1 (stereo not given),-16.2%,-3.0%,-2.8,-2.5%
COc1ccc(-c2nnn(CC(=O)NCc3ccc4c(c3)OCO4)n2)cc1OC,-8.7%,-0.9%,-3.9,-0.8%
O=C(NCc1ccccc1)c1c(Cl)nc(Cl)c(Cl)c1Cl,10.6%,-2.0%,·,23.5%
CC(NC(=O)/C(=C/c1ccc2c(c1)OCO2)NC(=O)c1cccc([N+](=O)[O-])c1)C(=O)O (stereo not given),-19.1%,2.3%,-24.4,2.5%
COc1ccc(NC(=S)NC(=O)/C=C/c2cccs2)cc1,-1.9%,-1.3%,-5.3,-11.2%
Cc1nn(CC(=O)NCC(C)c2ccccc2)c(=O)c2cc(-c3ccccc3)nn12 (stereo not given),-3.1%,1.1%,·,0.1%
CCn1cc(CNc2nc3nonc3nc2N2CCCCC2)cn1,19.9%,6.2%,3.0,-3.0%
CCOc1ccc(NC(=O)Cc2ccccc2)cc1,-6.9%,-1.5%,6.7,-71.5%
C/C(=N\NC(=O)c1nnn(-c2nonc2N)c1CN(C)c1ccccc1)c1ccc(O)cc1,-6.0%,-2.1%,·,-1.9%
O=c1c(-c2c(O)cc(O)c3c2O[C@H](c2ccc(O)cc2)CC3)c(-c2ccc(O)cc2)oc2cc(O)cc(O)c12,-7.3%,1.2%,·,·
CCOC(=O)c1cc(-c2ccccc2)n(CC(=O)Nc2cccc(OC)c2)c1C,-2.1%,2.5%,0.6,-5.7%

# Two entries drawn at random from those above, as already listed:
SMILES,Rango release inh,Rango-impB inh,GLA inh pH 4.5,miR-21 reporter
O=c1c(-c2c(O)cc(O)c3c2O[C@H](c2ccc(O)cc2)CC3)c(-c2ccc(O)cc2)oc2cc(O)cc(O)c12,-7.3%,1.2%,·,·
Cc1nn(CC(=O)NCC(C)c2ccccc2)c(=O)c2cc(-c3ccccc3)nn12 (stereo not given),-3.1%,1.1%,·,0.1%

# Other entries:
SMILES,Rango release inh,Rango-impB inh,GLA inh pH 4.5,miR-21 reporter
O=c1c2ccccc2nc2n1CCCS2,5.4%,2.7%,-2.1,-12.7%
O=C(NCCCN1CCOCC1)c1ccc(-n2nc(C(F)(F)F)cc2-c2cccs2)cc1,-1.2%,5.4%,2.4,24.6%
Cc1c([N+](=O)[O-])ccc(S(=O)(=O)N2CCC(C(N)=O)CC2)c1C,-25.9%,-2.2%,1.0,-0.8%
CC1CCCC(NC(=S)NC(=O)c2ccco2)C1C (stereo not given),-1.1%,-0.1%,·,·
O=C1NC(=Nc2cccnc2)S/C1=C\c1cccc(F)c1,-6.8%,?,3.6,-0.5%
CCCCCN(C(=O)CCC(=O)OCCOc1cccc(Cl)c1)c1c(N)n(CCCC)c(=O)[nH]c1=O,-3.1%,-0.4%,·,·
CCCNC(=O)CN1CCN(c2cc3ccccc3c(Cl)n2)CC1,-6.1%,0.0%,·,0.8%
CC(NC(=O)c1ccco1)C(c1cccs1)N1CCN(c2ccccc2F)CC1 (stereo not given),-9.9%,-2.1%,4.4,26.8%
O=C(CCCc1c[nH]c2ccccc12)NCc1ccccc1C(F)(F)F,-2.8%,-1.4%,·,-1.5%
CC(Sc1ccccc1)C(=O)N1CCN(S(=O)(=O)c2cccc(Br)c2)CC1 (stereo not given),-3.1%,-1.4%,·,14.5%
CC(=O)NCC(=O)N(C)C(C(=O)Nc1ccc2c(c1)OCCO2)c1ccc(C)cc1 (stereo not given),-9.5%,-1.4%,-1.6,-30.1%
COCCN1C(=O)C(=O)/C(=C(/O)c2ccc(S(=O)(=O)N3CCCCC3)cc2)C1c1ccc(O)c(OC)c1 (stereo not given),0.9%,0.5%,·,2.1%
CCOC(=O)CSC1=C(C#N)C(c2sccc2C)C(C(C)=O)=C(C)N1 (stereo not given),0.9%,-0.2%,-11.6,-7.0%
O=C(C(=O)N1CCOCC1)c1cn(CCOc2ccccc2)c2ccccc12,-2.6%,-1.4%,3.6,-6.8%
CC(C)(C)C1CCc2c(sc3c2C(=O)NC(c2ccco2)N3)C1 (stereo not given),-11.1%,-0.7%,-3.3,-29.1%
COCc1cc(=O)[nH]c2cc(NC(=O)c3cccc(OC)c3)c(C)cc12,5.1%,-0.6%,·,-0.8%
COc1ccc(C)cc1COC(=O)c1[nH]c(C)c(C(C)=O)c1C,-15.4%,-0.2%,·,8.1%
COc1ccc(S(=O)(=O)N2Cc3ccccc3CC2C(=O)O)cc1 (stereo not given),-2.9%,0.6%,6.2,-0.7%
O=C(O)c1ccccc1C(=O)Nc1ccc(Br)c2cccnc12,-5.9%,-1.2%,8.6,-11.0%&-9.4%
Cc1cnc(NC(=O)c2sc(Nc3ccccc3)nc2N)o1,1.8%,-0.2%,-3.0,-56.7%
CC1CCCC(NC(=O)COC(=O)c2cc3ccccc3oc2=O)C1C (stereo not given),-2.4%,0.4%,·,·
C=CCn1cc(C(=O)OC)c(=O)c2cc(S(=O)(=O)N3CCC(C)CC3)ccc21,-2.2%,-0.8%,-2.8,-4.2%
Cn1c2c(c(=O)n(C)c1=O)C(c1ccc(C(F)(F)F)cc1)CC(=O)N2 (stereo not given),-1.9%,0.5%,·,·
CCOC(=O)Cn1nnnc1C(C(C)C)N(Cc1cc2c(C)cc(C)cc2[nH]c1=O)C1CCCC1 (stereo not given),-14.4%,-0.3%,-2.5,-2.7%
NC(=O)C1CCN(c2nc(-c3cccc(Cl)c3)cs2)CC1,-7.7%,-3.0%,·,·
Cc1noc(C)c1CSCC(=O)OCC(=O)NC1CCCCC1,0.6%,-0.1%,?,-1.5%
Oc1ccc(C=Nc2ccc(N3CCOCC3)cc2)c(O)c1,-5.7%,?,-4.9,0.3%
COc1ccccc1-c1c(C)oc2cc(OCC(=O)OCc3ccccc3)ccc2c1=O,4.9%,0.1%,-2.2,-7.2%
CC(=O)N1N=C(c2cccs2)CC1c1cccc([N+](=O)[O-])c1 (stereo not given),8.1%,0.2%,3.7,-9.2%
CCO[C@@H]1OC(C(=O)NCc2nc3ccccc3[nH]2)=C[C@H](C)[C@H]1CCCO,-28.5%,-1.2%,1.6,1.1%
CCn1c2ccccc2c2cc(NC(=O)c3cccc(OC)c3)ccc21,-5.1%,-3.7%,0.1,-4.2%
C=CCN(c1ccccc1C(=O)O)S(=O)(=O)/C=C/c1ccccc1,6.2%,4.8%,4.8,-2.9%
O=C(CSCc1c(Cl)cccc1Cl)N1CCOCC1,5.0%,1.1%,-4.3,-5.3%
COc1ccc(S(=O)(=O)N(C)Cc2ccc3c(c2)OCCO3)cc1,-5.5%,-0.5%,·,·
COc1ccc(C(=O)O)cc1NC(=S)NC(=O)c1ccc(-c2ccc(Cl)cc2)o1,-7.2%,-4.4%,-7.6,-9.1%
CC(C)Oc1ccc(C(=O)N(CN2CCCC2=O)c2ccc(F)cc2)cc1,-10.0%,-0.8%,-0.5,-7.2%
O=C(/C=N/O)Nc1ccccc1C(=O)O,-10.9%,0.5%,1.6,-2.5%
CCN1C(=S)N[C@@H](c2cccc(F)c2)C(C(=O)OC)=C1C,10.1%,-1.0%,·,5.8%&-0.6%
COc1ccc(-c2csc(/C(C#N)=C\c3ccc(O)c([N+](=O)[O-])c3)n2)cc1OC,2.9%,-0.5%,-28.4,-20.8%
COc1ccc(CC(=O)NCCCSc2ccccc2)cc1OC,40.2%,-0.1%,·,-2.9%
Cc1ccc2[nH]c(C(=O)N3CCN(c4cccc(Cl)c4)CC3)cc2c1,23.4%,-0.1%,·,-0.2%
Cc1ccc(NC(=S)N(C)C(c2ccccc2)c2ccccc2)cc1C,0.2%,-1.5%,·,15.5%
CC(=O)N1CCc2cc(S(=O)(=O)N3CCOCC3)ccc21,9.1%,0.0%,-2.4,-5.6%
Cc1cc2n(n1)C(c1cccs1)Nc1ccccc1-2 (stereo not given),-2.2%,-0.2%,1.5,-8.5%
Cc1ccccc1NC(=O)NCCc1c[nH]c2ccccc12,16.2%,0.3%,-2.5,3.2%&4.4%
Oc1ccccc1-c1nc2cnccn2c1Nc1ccc2c(c1)OCCO2,32.9%,-0.1%,-4.9,0.2%
CCOC(=O)c1cccnc1SCC(=O)N(C)c1ccccc1,-0.3%,2.0%,-2.3,-2.5%
CCS(=O)(=O)Nc1ccc(C(=O)CC2(O)C(=O)Nc3ccc(Br)cc32)cc1 (stereo not given),-3.1%,-7.1%,-3.3,-1.2%
CCOC(=O)N1CCN(Cc2nc3ccc([N+](=O)[O-])cc3c(=O)n2-c2ccccc2F)CC1,12.6%,1.2%,·,0.2%
O=C(NCc1ccccc1)c1ccc(NC(=O)C2CCC2)cc1,1.1%,1.7%,·,·
# Other records:
SMILES,Rango release inh,Rango-impB inh,GLA inh pH 4.5,miR-21 reporter
Cc1nnc(SCc2cccc([N+](=O)[O-])c2)s1,-7.1%,-0.6%,0.7,-22.1%
CCOc1ccc(C(O)C(CN2CCOCC2)c2ccccc2)cc1 (stereo not given),0.8%,1.4%,2.5,-4.7%
CCOc1ccc(C(=O)C[n+]2ccc(C(=O)NCCO)cc2)cc1,-9.1%,-2.4%,·,-6.6%
Cc1ccccc1OCCC(=O)OCC(=O)Nc1ccc(C(N)=O)cc1,18.9%,-0.3%,4.9,-2.3%
O=C1Nc2ccccc2C1C(C[N+](=O)[O-])c1ccccn1 (stereo not given),1.7%,2.7%,·,-0.2%
COc1ccc(CCn2c(C)cc(C(=O)CSc3nnnn3C)c2C)cc1,-1.0%,0.1%,-0.8,-2.0%
O=C1c2ccccc2-c2nc3ccccc3n21,6.7%&-3.8%,-5.0%&6.1%,-5.3,-21.3%
COc1ccccc1N(CCN1C(=O)c2cccc3cccc(c23)C1=O)C(=O)c1ccncc1,·,·,-3.2,3.9%
Cc1ccc(-n2c(Cc3cccn3C)nnc2SCC(N)=O)cc1,-3.3%,4.6%,5.1,-3.5%
COc1ccc(CC(=O)Nc2ccc(N3CCN(c4ccc(OC)cc4)CC3)c(C#N)c2)cc1,7.3%,-6.1%,-4.1,-4.5%
Cc1nnc(SCc2cc(=O)n3[nH]cnc3n2)s1,0.6%,-0.2%,5.0,-1.2%
C/C(CC(=O)NCc1ccc(F)cc1)=N\NC(N)=S,-10.0%,1.2%,-3.8,-1.1%
COc1ccccc1NC(=S)NC(=O)C(C)C,-6.2%,3.2%,-0.2,-5.8%
COc1cc2[nH]cc(C(=O)NCCc3ccccc3)c(=O)c2cc1OC,-3.4%,-1.6%,3.0,-12.4%
CCOC(=O)N1CCC(NC(=O)C2=CCN(S(=O)(=O)c3ccc(F)cc3)CC2)CC1,9.9%,0.8%,7.9,-0.6%
O=C(Nc1cccc(S(=O)(=O)N2CCCC2)c1)c1cncc(Br)c1,-0.4%,1.6%,·,·
CC1CCCCC12NC(=O)N(CC(=O)N1CCN(S(=O)(=O)c3cccs3)CC1)C2=O (stereo not given),2.1%,-3.0%,·,·
COc1ccc2c(c1)nc(CN1CCN(CCO)CC1)n2C,12.1%,0.0%,·,0.3%
CC(NC(=O)C(C)(C)C)C(c1cccs1)N1CCOCC1 (stereo not given),8.4%,-6.2%,0.7,-2.9%
CN(C)S(=O)(=O)c1ccc2c(c1)C(=NO)c1cc(S(=O)(=O)N(C)C)ccc1-2,-8.0%,-0.9%,·,1.0%
CCC(=O)Nc1nnc(SCC(=O)NC2CCCC2)s1,-4.7%,-3.3%,·,0.6%
CC(=O)Nc1cccc(NC(=O)c2cc(Cl)ccc2Cl)c1,-4.8%,2.3%,-1.7,-0.9%
